High-throughput results (PubChem BioAssay)
Mtb hypoxia rep: inhibitors of hypoxia-regulated fluorescent reporter in Mycobacterium tuberculosis; M. tuberculosis hypoxia-regulated fluorescent reporter, fluorescence; hit rate 0.1% among 300,000; fluorescence inhibition, % (concentration not given with the values);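 active = 35 to 45% if threefold the growth effect, above 45% if 1.5-fold the growth effect; inactive = the rest, general growth blockers included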;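 note: wells of about 50 µL received 100 nL stock; 0% = vehicle wells and 100% = reference inhibitor wells; whole bacteria with a GFP reporter of the hypoxia response; strong numbers were not always called active; many hits fall short of the cut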
ugtP null kill: kills S. aureus RN4220 lacking UgtP. AID 1259309. growth inhibition, % (test concentration not listed). S. aureus RN4220 ugtP deletion, OD600 growth, 16 h; some inactives read as strong as hits. hit rate 0.54% among 330,000;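 active = z-score under -3 and OD600 up to 0.15 on both plates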;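 note: plate controls were untreated wells for no effect and antibiotic for full effect; wells of about 80 µL received 100 nL stock; the first replicate is given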
RN4220 kill: S. aureus RN4220 growth inhibition | OD600, 16 h | inhibition, % (no concentration beside the values) | hit rate 0.33% among 330,000 | AID 1259311;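 active = z-score of -3 or lower and OD600 up to 0.18 on both plates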;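 note: plate controls were untreated cells for no effect and reference antibiotic for full effect; stock transfer was 100 nL into about 80 µL; one replicate is shown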
BJeLR viability: kills HRASV12-expressing BJeLR cells; inhibition, % (no concentration beside the values); hit rate 0.17% among 300,000; BJeLR (HRASV12) viability, CellTiter-Glo ATP luminescence, 48 h; reference of the scale not given here;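 active = replicate mean above 50%; inconclusive = above 50% but judged a plate artefact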;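 note: 50 nL library stock added to about 25 µL; numbers are from one replicate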
Autofluor counter: compound fluorescence in toxin protease inhibitor counterscreen; AID 624483; hit rate 3.1% among 360,000; compound autofluorescence counterscreen, microsphere flow cytometry; hits give high values; fluorescence intensity (test concentration not listed);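 active = at least 3 SD above the mean of all compounds, about 16000 in these data; inconclusive = too few beads counted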;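 note: 100 nL of 1 mM stock went into each well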
PrP 5UTR inh: suppresses PrP 5' UTR mRNA reporter expression. cell-based PrP 5' UTR mRNA reporter, plate reader. inhibition, % (no concentration beside the values). hit rate 0.35% among 340,000. AID 488862;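 active = every replicate at 50% or more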;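 note: 0 = median of the neutral control wells; tested in H4 reporter cells; numbers are from one replicate; inactives centre near -14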
Mtb hypoxia rep growth: also measured in Mtb hypoxia rep; calls as there; growth inhibition, %; measured here: M. tuberculosis growth (absorbance);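 0% = vehicle and 100% = reference antibiotic; read after six days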
An asterisk follows results filed as active; ? = inconclusive; · = no result given.

SMILES	Mtb hypoxia rep	Mtb hypoxia rep growth	ugtP null kill	RN4220 kill	BJeLR viability	Autofluor counter	PrP 5UTR inh
COc1ccc(S(=O)(=O)NNC(=O)C2CC(c3cccnc3)=NO2)cc1 (stereo unspecified)	-1.0	-1.0	2.1	0.3	·	4641	-9.5
OCC1(Cc2ccc(Cl)cc2)CCN(Cc2ccc(Oc3ncccn3)cc2)CC1	5.5	7.9	10.8	0.6	-13.4	3422	-13.6
Cc1ccc(C(=O)NCCC(=O)NCc2cc(=O)n(C)c(=O)n2C)cc1	1.6	2.4	-2.4	-3.3	14.1	4804	-17.8
COc1ccc([C@@H]2C[C@H](c3ccccc3)Oc3cc(OC)c(OC)c(OC)c32)cc1	·	·	·	·	7.2	3902	-18.7
Cc1ccc(C)c(S(=O)(=O)Nc2cc3c4c(c2)CCN4C(=O)CC3)c1	2.6	-5.4	5.9	5.3	2.4	·	-22.1
Cc1ccc(C(C(=O)NC(C)(C)C)N(C(=O)c2csnn2)c2cccc(F)c2)o1 (stereo unspecified)	14.3	14.1	3.6	5.3	-1.7	7769	-20.8
O=C1N=C(N2CCCC2)S/C1=C\c1ccccc1	·	·	-13.6	4.1	-5.5	4462	2.8
COC(=O)Cc1ccc(NC(=S)NCCCO)cc1	10.5	11.4	-8.2	6.0	-8.7	9920	-25.2
CCN=C1SCC(=O)N1c1ccc(OC)cc1	1.9	9.2	-10.9	20.3	-5.8	?	-10.2
COc1ccc(CNC(=O)c2nn(-c3ccccc3)cc2OC)cc1	7.3	5.1	8.1	0.5	-4.0	5761	5.8
CC(C)CCNC(=O)NC(=O)CSc1nnc2ccccn12	0.8	2.2	11.3	4.9	15.5	6821	-33.1
Oc1cccc(/C=N/N(Cc2ccccc2)c2ccccc2)c1	·	·	·	·	-10.4	4240	-15.6
O=C1N=C2N(CCN3CCCCC3)c3ccccc3N2/C1=C\c1ccc([N+](=O)[O-])s1	15.6	15.4	2.3	3.5	·	5952	-29.5
CC1CCCC(C)N1C(=O)COC(=O)C(Cc1ccccc1)NC(=O)c1cccs1 (stereo unspecified)	3.3	8.3	5.2	4.8	-4.0	2119	-10.4
N#C/C(=C\c1ccc(Cl)c([N+](=O)[O-])c1)c1ccccn1	10.7	3.0	-0.3	4.4	3.1	4649	-17.1
CC1CCN(c2cc(N3CCOCC3)c(F)cc2[N+](=O)[O-])CC1	·	·	5.8	1.3	4.4	4193	-7.6
COc1ccc(-c2nc3ccccc3n2Cc2ccccc2)cc1	·	·	27.6	-3.8	-3.3	2219	-7.3
CCN(C(=O)CN1c2ccccc2CC1C)c1c(N)n(Cc2ccccc2)c(=O)[nH]c1=O (stereo unspecified)	-5.3	9.0	7.2	6.4	-10.3	4827	-11.9
O=C(NC(=O)N1CCN(c2cccc(Cl)c2)CC1)c1ccccc1	0.2	5.6	-1.2	2.7	-1.3	11247	-15.0
COc1ccc(/C=C(\C#N)C(=O)Nc2cc(S(=O)(=O)N3CCOCC3)ccc2N2CCCC2)cc1	7.4	1.3	2.4	-0.6	1.6	2478	-20.4
O=C(Nc1cccc(F)c1)NC1CCN(Cc2ccccc2)CC1	3.5	7.4	1.5	1.2	-10.3	2341	-18.5
CCN(CC)S(=O)(=O)c1cccc(NC(=O)CNc2cccc(S(=O)(=O)N3CCOCC3)c2)c1	·	·	·	·	12.8	?	1.4
Cc1ccccc1/C=N/Nc1nc2ccccc2c(=O)n1O	·	·	·	·	-2.7	4460	-39.1
CCCc1oc(C(=O)O)cc1CN1CCOCC1	1.4	-0.1	11.1	4.5	3.7	8574	-18.4
O=C(NCCc1ccc(Cl)cc1)C(=O)c1c[nH]c2ccccc12	9.1	-8.8	-2.9	2.6	0.2	3703	-22.1
N#C/C(=C\c1ccc(Cl)cc1Cl)c1n[nH]c(Cn2cncn2)n1	·	·	·	·	-8.6	2993	-5.2
COc1ccnc(NCc2ccc(Cl)cc2)c1C#N	-1.8	4.8	-0.8	5.3	-5.9	4342	-1.7
COc1ccc(C=NNC(=O)c2csc(-n3nc(C)cc3C(F)(F)F)n2)cc1	10.8	10.0	-4.9	6.3	·	·	·
COCCn1c(=S)[nH]c2cc(C(=O)N3CC(C)CC(C)C3)ccc2c1=O (stereo unspecified)	0.0	-13.1	-1.1	-1.1	5.1	5573	-9.5
Cc1cccc(C(=O)N(Cc2ccc(C)o2)C2CCS(=O)(=O)C2)c1 (stereo unspecified)	3.4	-3.4	1.7	0.4	-5.8	5502	-21.7
CC(OC(=O)CC(NC(=O)c1ccccc1Cl)c1ccccc1)C(=O)Nc1cccc(Cl)c1Cl (stereo unspecified)	2.6	6.2	-14.1	3.0	1.9	2629	-13.2
CNC(=O)[C@H](C)[C@@H]1C[C@@]1(C)[C@@H](NC(=O)OCc1ccccc1)c1ccccc1	·	·	·	·	5.5	4136	-38.0
COCCn1cnnc1SCC(=O)Nc1cc(C)on1	12.7	13.5	7.4	1.5	·	3383	-21.8
NC(=N[N+](=O)[O-])N1CCN(C(=O)Oc2ccccc2)CC1	2.7	-3.8	7.8	5.3	·	·	·
C#CCOC(=O)c1ccccc1C(=O)N(CC)CC	2.0	0.8	6.2	4.1	12.6	17452*	-17.6
O=C(O)C(Cc1c[nH]c2ccccc12)NS(=O)(=O)c1ccc(Cl)cc1 (stereo unspecified)	3.7	-1.1	-1.5	4.5	3.2	3672	-6.4
CCOC(=O)Cn1c(=NC(=O)CC)sc2c(C)cc(C)cc21	5.1	1.1	-6.2	6.3	1.4	4884	-7.2
CCOc1ccc(S(=O)(=O)N2CCC(C(=O)N3CCN(c4ccccc4F)CC3)CC2)cc1C	3.3	-1.5	-2.8	-6.6	-34.4	3813	-6.3
O=C1CC[C@@H](CN(Cc2ccccn2)Cc2nc(Cc3ccccc3)no2)N1	-2.5	6.9	8.9	4.8	7.5	3660	-5.3
CCCOc1cc(C)c(S(=O)(=O)NC2CC(C)(C)NC(C)(C)C2)cc1C	-0.6	7.9	-1.9	-3.7	1.4	2452	-1.3
O=C(OCc1nc(-c2ccccc2Cl)no1)c1ccco1	8.1	0.6	-0.8	7.4	·	3824	-19.4
COc1cc(C=NNC(=O)c2nnn(-c3nonc3N)c2C(C)C)ccc1OCc1ccc(F)cc1	-4.7	-3.7	17.7	11.7	·	·	·
Cc1cccc(N)c1-c1c(C)cccc1N	-1.0	15.4	2.1	3.9	13.0	4217	-7.4
O=C(COc1ccccc1)NCC(=O)Nc1cccc(S(=O)(=O)NC2=NCCC2)c1	2.6	7.4	2.7	3.9	-1.9	2626	-14.6
CC(C)(C)C(=O)Nc1ccc(C(=O)N/N=C/c2ccccc2OC(=O)c2ccc(Cl)cc2)cc1	·	·	·	·	3.7	2411	8.5
COc1ccc(C(=O)ON=C2CCS(=O)(=O)c3sccc32)cc1	0.5	4.6	8.9	1.8	·	·	·
CCCn1c(=O)c2[nH]cnc2n(-c2ccc(Cl)cc2)c1=O	17.7	10.0	3.3	3.5	-12.9	3644	-1.2
O=C(COC(=O)/C=C/c1ccc(S(=O)(=O)N2CCOCC2)cc1)NC1CCCCCCC1	17.7	9.4	5.2	3.8	-2.8	3496	-17.2
CCOC(=O)C1(CCOC)CCN(CC(C)Cc2ccc3c(c2)OCO3)CC1 (stereo unspecified)	15.3	10.9	6.1	2.4	-17.3	3069	-13.2
Clc1ccc(-c2n[nH]c3c2Cc2ccccc2-3)cc1Cl	11.9	2.6	-0.5	-2.4	-1.7	·	·
Cc1nc(-c2ccc(S(=O)(=O)Nc3ccc(Br)cc3F)cc2)co1	0.3	-1.3	-7.0	10.2	17.7	5391	1.6
CCCCS(=O)(=O)/C=C\C1C2C=CC(C2)C1S(=O)(=O)CCCC (stereo unspecified)	0.0	-12.6	15.2	18.9	14.0	3112	-24.5
COC(=O)c1cnc(N2CCCN(S(=O)(=O)c3ccc(C(F)(F)F)cc3)CC2)nc1C(F)(F)F	-3.0	4.0	-6.6	1.0	-0.5	·	-9.2
CCN(CCNC(=O)C1CCN(Cc2nc(-c3ccc(Cl)cc3)oc2C)CC1)c1ccccc1	-6.6	-4.2	-23.5	-1.7	2.7	22915*	1.8
Cc1nc2ccccc2c(=O)n1/N=C/c1c(O)ccc2oc3c(c12)CCCC3	·	·	·	·	-0.8	2207	60.8*
CCOc1ccc(C(=O)NCc2ccccc2)cc1Br	11.2	13.4	4.5	-0.2	-3.9	9957	-28.1
CC1=NN(c2ccccc2)C(=O)C1/C=C1\NC(=S)NC1=O (stereo unspecified)	13.3	-4.5	1.7	0.5	2.4	4094	-7.4
O=C(O)c1cccc(Cn2c(Cl)c(/C=N/NC(=O)c3cc4ccccc4cc3O)sc2=O)c1	·	·	·	·	9.8	4688	-9.6
CCC(C(=O)OCC(=O)Nc1cc(Cl)cc(Cl)c1)c1ccccc1 (stereo unspecified)	18.6	3.7	-18.5	-6.3	12.7	2640	-23.1
C=CCN(c1ccccc1)S(=O)(=O)c1cc(C(=O)NC2=NCCS2)ccc1Cl	-3.2	-2.0	-3.3	7.0	-7.0	4415	-29.4

One compound at a time (already shown).
C=CCN(c1ccccc1)S(=O)(=O)c1cc(C(=O)NC2=NCCS2)ccc1Cl is entered as Mtb hypoxia rep: -3.2; Mtb hypoxia rep growth: -2.0; ugtP null kill: -3.3; RN4220 kill: 7.0; BJeLR viability: -7.0; Autofluor counter: 4415; PrP 5UTR inh: -29.4
CCOC(=O)C1(CCOC)CCN(CC(C)Cc2ccc3c(c2)OCO3)CC1 (stereo unspecified) is entered as Mtb hypoxia rep: 15.3; Mtb hypoxia rep growth: 10.9; ugtP null kill: 6.1; RN4220 kill: 2.4; BJeLR viability: -17.3; Autofluor counter: 3069; PrP 5UTR inh: -13.2

Continuation.
SMILES	Mtb hypoxia rep	Mtb hypoxia rep growth	ugtP null kill	RN4220 kill	BJeLR viability	Autofluor counter	PrP 5UTR inh
COc1ccc(N(C(C)C(=O)NC2CCCCCC2)S(C)(=O)=O)cc1 (stereo unspecified)	3.4	-2.9	3.2	3.4	2.2	4032	-8.4
O=C(Nc1ccccc1F)c1cc(S(=O)(=O)N2CCOCC2)cs1	8.9	2.4	10.8	-1.4	-0.2	4277	6.7
O=C(Nc1ccc(SC(F)F)cc1)C1=CC=CN2CCS(=O)(=O)N=C12	22.6	41.9	7.2	5.7	·	3917	-14.2
O=C(C1CC(c2ccc(F)cc2)=NO1)N1CCCCC1 (stereo unspecified)	·	·	3.2	2.1	-0.5	22237*	-53.6
COC(=O)CN(c1ccc(OCc2ccccc2)cc1)S(C)(=O)=O	7.1	-0.5	2.5	7.2	-5.4	4455	-3.3
Cn1nc(-c2ccc(C(=O)NC3CCCCC3)cc2)c2ccccc2c1=O	5.5	2.4	0.0	2.6	1.1	2914	-2.5
CCOC(=O)COc1ccc(S(=O)(=O)N2CCN(c3ccc(F)cc3)CC2)cc1	0.3	5.0	-0.8	1.4	5.6	10766	-25.0
CC(=O)Nc1ccc(S(=O)(=O)NC(C(=O)O)C2=CCC=CC2)cc1 (stereo unspecified)	0.9	0.3	-0.2	-2.2	-7.6	7148	-13.0
CCCn1c(N)c(C(=O)CSc2nncs2)c(=O)[nH]c1=O	6.2	4.8	3.4	4.8	·	?	-17.4
OC1(c2ccc(Cl)c(Cl)c2)C[n+]2ccccc2N1Cc1ccccc1 (stereo unspecified)	7.6	-7.9	-18.1	-6.7	1.1	5819	-1.0
COc1ccc(O)c(C(=O)CC(=O)c2ccccc2C)c1	1.9	9.8	12.0	30.7	0.8	3455	-82.4
O=S(=O)(Nc1cccc(-n2cnnn2)c1)c1ccccc1	9.1	-1.1	4.1	2.7	-9.6	5890	-4.5
CC[C@H](C)[C@H](NC(=O)OCc1ccccc1)C(=O)Nc1ccc(NC(C)=O)cc1	1.2	-1.0	0.3	-0.5	2.8	4683	-20.9
CCn1c(CNC(=O)c2ccc3c(c2)OCO3)nnc1SCC(=O)Nc1cc(C)ccc1OC	·	·	-7.9	1.7	0.1	2789	-8.0
C=CCNC(=S)NNC(=O)c1ccc(OCCCC)cc1	25.1	-17.3	15.0	18.8	0.3	2376	0.6
Cc1ccc(-n2ncc3c(SCc4cccnc4)ncnc32)c(C)c1	8.9	14.7	1.3	0.2	3.3	4268	-48.5
CCOCCn1c(=NC(=O)c2cc3ccccc3oc2=O)sc2cc(S(N)(=O)=O)ccc21	·	·	·	·	-12.2	1997	-13.9
COCCNC(=S)Nc1ccc2nc(N3CCN(C)CC3)cc(C)c2c1	0.0	-0.1	1.1	0.9	-10.5	3035	-9.3
Cn1nc([N+](=O)[O-])nc1N1CCOCC1	-2.7	2.5	5.8	1.1	1.8	2012	-19.4
